From PubChem BioAssay
GLA inh pH 4.5: qHTS Assay for Inhibitors of Human alpha-Galactosidase at pH 4.5; Alpha-galactosidase A (Homo sapiens), P06280; purified enzyme, 4-MU-alpha-Gal fluorescence, pH 4.5; activity change, negative = inhibition, % at 105 µM; 230,000 tested, under 10 active; AID 1467, 2008; inconclusive = small, poorly fitted or top-dose-only inhibition, or a rising curve; inactive = flat fitted curve, though single readings scatter; no compound was filed as active;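 note: 0% = full activity with enzyme and -100% = basal without enzyme; dose as in the result columns while the protocol names 77 µM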
Target sequence (P06280 whole entry, looked up): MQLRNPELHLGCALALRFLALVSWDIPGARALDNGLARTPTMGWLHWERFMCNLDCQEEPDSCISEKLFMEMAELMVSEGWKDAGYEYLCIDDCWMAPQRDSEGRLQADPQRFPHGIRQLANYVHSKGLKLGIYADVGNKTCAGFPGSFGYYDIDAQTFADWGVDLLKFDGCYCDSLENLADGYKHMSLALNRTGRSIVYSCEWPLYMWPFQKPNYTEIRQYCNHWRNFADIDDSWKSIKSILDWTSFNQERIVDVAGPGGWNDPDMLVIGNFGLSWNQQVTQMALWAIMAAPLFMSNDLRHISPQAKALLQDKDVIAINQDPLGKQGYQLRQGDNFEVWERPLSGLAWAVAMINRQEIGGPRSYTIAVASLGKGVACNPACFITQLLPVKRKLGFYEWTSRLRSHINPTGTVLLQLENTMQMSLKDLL
miR-21 FLuc: qHTS Assay for Modulators of miRNAs and/orActivators of miR-21; HeLa miR-21 FLuc reporter, luciferase, 48 h; 340,000 tested, under 10 active; AID 2288, 2010; Potency, µM (highest dose often 38.3 µM), inactives show at the top dose reporter change, positive = more light; active = well fitted rising curve with a large enough effect; inconclusive = small, poorly fitted or top-dose-only effect; inactive = no such curve, though single readings can be large or run the other way;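 note: % of control where 0% means no effect; miR-21 action dims this reporter so a rising signal means less miR-21 action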
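Compounds were titrated across several concentrations (up to approximately 40 uM) and incubated 48 hours with HeLa miR-21-FLuc reporter cells (miR-21 target sequence downstream of FLuc, endogenous miR-21). Readout was firefly luciferase luminescence after lytic detection reagent.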
Rango release inh: qHTS Assay for Inhibitors of RanGTP induced Rango (Ran-regulated importin-beta cargo) - Importin beta complex dissociation; 0.071% of 340,000 active; AID 540253, 2011; Potency, µM (series often up to 46.1 µM), inactives show at the top dose activity change, negative = inhibition; Biochemical FRET Rango-importin beta, RanGTP-induced dissociation; Snurportin-1 (Homo sapiens) + GTP-binding nuclear protein Ran (Homo sapiens) + Importin …; active means falling FRET ratio curve, often poorly fitted, with flat reads before Ran was added; inconclusive means other falling curves, or compound fluorescence or quenching; inactive means flat or rising ratio curve;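 note: potency is the fitted concentration of half-maximal effect; % of control where 0% means no effect; nearly all actives have a fitted effect of over 45% in size; -100% = wells without RanGTP and RCC1; the record marks most hits as doubtful in a second field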
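Quantitative HTS using a FRET biosensor: 0.1 uM Rango, 0.25 uM importin beta, 0.6 uM Ran, 2 mM GTP, 0.2 uM RCC1 final, PBS with DTT, Tween-20 and BSA. Post-read taken 45 min after Ran addition.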
Rango complex inh: qHTS Assay for Inhibitors of Rango (Ran-regulated importin-beta cargo) - Importin beta complex formation. Rango CFP/YFP FRET sensor + importin beta, 45 min. 0.031% of 340,000 active. Importin subunit beta-1 (Homo sapiens), Q14974. Potency, µM (top dose mostly 92.2 µM), for the others: at the top dose inhibition of complex formation; active = rising FRET ratio curve, often small or poorly fitted; inconclusive = mostly compound fluorescence or quenching in the first reads; inactive = flat curves in all reads;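 note: potency is the fitted concentration of half-maximal effect; 0% = DMSO wells and 100% = buffer wells lacking importin beta; nearly all actives have a fitted effect of over 15% in size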
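FRET biosensor Rango (snurportin 1 IBB between N-terminal EYFP and C-terminal Cerulean), 50 nM in PBS/1 mM DTT/0.02% Tween-20/0.1% BSA, preincubated 5 min RT with compound; 0.125 microM importin beta added, 45 min RT, CFP/YFP FRET ratio read.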
Starred values were filed as active, the others as inactive; u = inconclusive; x = not tested or not shown; & = joins results of further samples.

entry	mol	Rango complex inh	Rango release inh
1	COCCCn1c(=N)c(C(=O)NCC2CCCO2)cc2c(=O)n3cccc(C)c3nc21 (stereo unspecified)	u	u
2	O=C(NC1CCCCC1)C(c1ccc(O)cc1)N(C(=O)c1cnccn1)c1cccc(F)c1 (stereo unspecified)	0.7%	15%
3	CCC(C(=O)NC(C)(C)C)N(C(=O)Cn1nnc(-c2ccccc2F)n1)c1cnc2ccccc2c1 (stereo unspecified)	1.8%	13%
4	CC(C)CC(=O)NC(NC(=S)Nc1sc2c(c1C#N)CCCC2)C(Cl)(Cl)Cl (stereo unspecified)	-1.1%	-11%
5	Cc1onc(-c2c(Cl)cccc2Cl)c1C(=O)Nc1ccc2c(c1)OCCO2	u	12%
6	CCCCCC(C)n1[nH]c(=O)c2c(C)cc(C)nc21 (stereo unspecified)	-1.1%	-4%
7	C=CCn1c(SC(F)F)nc2scc(-c3ccco3)c2c1=O	-3.0%	4%
8	CN(C(=O)COC(=O)CNC(=O)CNC(=O)c1ccc(Cl)cc1Cl)c1ccccc1	3.9%	21%
9	Brc1ccc(C2=Nn3c(nnc3-c3cccnc3)SC2)s1	2.1%	4%
10	NNC(=O)c1ccc(N2CCc3ccccc32)c([N+](=O)[O-])c1	-5.0%	12%

entry	miR-21 FLuc	GLA inh pH 4.5
1	-1%	u
2	0%	x
3	-2%	-5
4	-3%	-9
5	-7%	-2
6	3%	3
7	-7%	x
8	2%	3
9	-1%	-2
10	16%	0

Next records
entry	mol	Rango complex inh	Rango release inh
11	COc1cc(C2CC(=O)NC3=C2C(=O)CC(C)(C)C3)ccc1O (stereo unspecified)	0.7%	-8%
12	CCOC(=O)C1C(C#N)=C(N)OC(C)=C1c1ccncc1 (stereo unspecified)	-1.2%	0%
13	CCOC(=O)C1CCCN(S(=O)(=O)Cc2ccccc2Cl)C1 (stereo unspecified)	1.3%	1%
14	COc1ccc(N2CCCn3c2nc2c3c(=O)n(Cc3ccccc3)c(=O)n2C)c(OC)c1	-6.0%	-14%
15	N#CCN1CCN(CC(=O)Nc2ccc(OCc3ccccc3)cc2)CC1	-1.2%	-10%
16	O=P(O)(O)c1ccccc1OCCCCCOc1ccccc1P(=O)(O)O	0.9%	18%
17	CCOC(=O)N1CCC(NC(=O)CN2C(=O)CCSc3ccccc32)CC1	-5.9%	0%
18	O=C(NC1CCCCC1)c1ccc(CNc2nc(=S)[nH]c3ccccc23)cc1	u	-13%
19	CC(=O)Nc1ccc(C(=O)N2CCN(S(=O)(=O)c3ccc4c(c3)OCCCO4)CC2)cc1	0.0%	23%
20	CC1(C)CNC(=O)C=C(c2ccccc2)C1	-1.7%	-12%

entry	miR-21 FLuc	GLA inh pH 4.5
11	-4%	4
12	-1%	5
13	-1%	x
14	0%	-13
15	-24%	-9
16	0%	2
17	-4%	2
18	0%	3
19	x	x
20	-2%	-1

Next results:
entry	mol	Rango complex inh	Rango release inh
21	COc1ccc(S(=O)(=O)Oc2ccc3c(c2)O/C(=C\c2cccnc2)C3=O)cc1	-1.5%	-16%
22	COc1cc(C(=O)NNC2=CC(=O)CC(C)(C)C2)cc(OC)c1OC	-3.6%	16%
23	COc1ccc(NC(=O)c2cc(SC)ccc2Cl)cc1	0.4%	11%
24	O=C(COc1ccc(Br)cc1)N1CCCCCC1	2.5%	20%
25	O=C(Nc1ccc(Cl)cc1)Nc1ccc(N2CCOCC2)cc1	-2.6%	-1%
26	Cc1cccc(N2CCN(C(=O)c3cc(S(=O)(=O)N4CCOCC4)cn3C)CC2C)c1 (stereo unspecified)	-2.1%	-9%
27	CC1CCc2sc3c(c2C1)c(=O)n(CC(=O)O)c(=O)n3Cc1ccc(Cl)cc1 (stereo unspecified)	-0.5%	2%
28	Cc1ncn(-c2ccc(C(=O)Oc3ccccc3)cn2)n1	0.5%	4%
29	CS(=O)(=O)Nc1ccc2c(c1)nc1n2CCOC1	-0.6%	23%
30	CCOc1ccccc1OCCCOc1ccc([N+](=O)[O-])cc1Cl	0.0%	4%

entry	miR-21 FLuc	GLA inh pH 4.5
21	1%	-14
22	15%	4
23	-1%	-5
24	-30%	9
25	-29%	6
26	2%	x
27	2%	x
28	0%	-12
29	-9%	0
30	-40%	2

Later entries.
entry	mol	Rango complex inh	Rango release inh
31	CC(=O)Nc1ccc(S(=O)(=O)N2CCN(CC(=O)NC3CCCC3)CC2)cc1	-0.6%	-15%
32	CN(CCNC(=O)c1ccc(CS(=O)(=O)c2ccc(Br)cc2)o1)CCc1ccccc1	-0.7%	-12%
33	CCn1c(C)cc2c(c1=O)C(c1ccccc1)C(C(=O)OC)=C(N)O2 (stereo unspecified)	u	u
34	COC(=O)c1[nH]c2cc(OC)ccc2c1NC(=O)c1ccc2c(c1)OCO2	-0.5%	10%
35	CCOC(=O)N1CCC(Nc2c(N3CCN(c4cccc(C(F)(F)F)c4)CC3)c(=O)c2=O)CC1	2.7%	-13%
36	Cc1ccc(C)n1-c1sccc1C(=O)O	u	-29%
37	Cc1cnc(C(=O)OCC(=O)Nc2ncc(Cl)cc2Cl)cn1	-5.6%	-11%
38	COCc1cc(C)nc2sc(C(=O)OC(C)C)c(N)c12	u	u
39	COc1cc(C(=C(CC(=O)O)C(=O)O)c2ccc3c(c2)OCO3)cc(OC)c1OC	0.9%	-8%
40	CC(=O)C1=C(C)NC(SCC(N)=O)=C(C#N)C1c1sccc1C (stereo unspecified)	-2.8%	13%

entry	miR-21 FLuc	GLA inh pH 4.5
31	1%	6
32	5%	x
33	-5%	0
34	-8%	6
35	7%	1
36	0%	-4
37	x	x
38	-55%	-9
39	x	x
40	-2%	10

Continued:
entry	mol	Rango complex inh	Rango release inh
41	COc1ccccc1N1CCN(Cc2cc3c(cc2Br)OCCO3)CC1	3.7%	-2%
42	Cn1c(-c2c(N)n(CCc3ccccc3)c3nc4ccccc4nc23)nc2ccccc21	u	u
43	O=C1CSC(c2cccc(F)c2)N1c1c(F)cccc1F (stereo unspecified)	2.0%	18%
44	C/C(=N/N=C1/NC(=O)CC(C(=O)Nc2ccccc2)S1)c1cccs1 (stereo unspecified)	-3.4%	10%
45	COC(=O)CN1C(=O)COc2ccc(S(=O)(=O)N3CCCCCC3)cc21	-2.1%	15%
46	O=C(Nc1nnc(C2CC2)s1)C1CCCCC1	2.9%	-4%
47	O=C(/C=C/c1cccs1)Nc1sc2c(c1C(=O)O)CCCC2	-1.3%	u
48	CSc1ccccc1C(=O)N1CCN(S(=O)(=O)c2sc(C(=O)O)c(C)c2C(=O)O)CC1	-3.0%	-5%
49	NCCCN1CCOCC1	-3.0%	10%
50	Cc1cc(NC(=O)c2oc3ccccc3c2C)ccc1-n1cnnn1	-2.6%	-11%

entry	miR-21 FLuc	GLA inh pH 4.5
41	11%	x
42	20%	-23
43	-3%	x
44	-19%	0
45	0%	x
46	x	x
47	u	x
48	x	x
49	-2%	9
50	-6%	-5

Remaining list, next part:
entry	mol	Rango complex inh	Rango release inh
51	COc1cc(/C=C2\CCCc3c2nc2ccccc2c3C(=O)O)cc([N+](=O)[O-])c1O	7.8%	7%
52	Cc1c(NC(=O)CSc2ncccn2)c(=O)n(-c2ccccc2)n1C	-0.1%	5%
53	COc1ccc(Cl)cc1NC(=O)CN(C)S(=O)(=O)c1cccs1	-0.5%	-2%
54	CCOC(=O)c1c[nH]c2c3c(ccc2c1=O)CCCC3	-4.6%	2%
55	COc1ccccc1CC(=O)Nc1cccc2c1CCCC2	0.0%	-9%
56	O=C(CCNC(=O)c1ccccc1Cl)Nc1ccc2c(c1)OCO2	-0.2%	-13%
57	C/C(N)=C(/C#N)C(=O)CSc1nnnn1-c1ccc(C)cc1C	-1.9%	-7%
58	Cc1cccc(CS(=O)(=O)Cc2ccc(C(=O)NCCc3ccccc3)o2)c1	-0.6%	-10%
59	C=CC[C@@H](CC(=O)N(CCO)Cc1ccccc1)C(=O)N[C@H](COC(=O)[C@H](CC=C)CC(=O)OC(C)(C)C)Cc1c[nH]c2ccccc12	-0.7%	2%
60	COCc1nn2c(N)c(C#N)cnc2c1-c1ccccc1	-1.4%	9%

entry	miR-21 FLuc	GLA inh pH 4.5
51	3%	x
52	-1%	6
53	-1%	x
54	-31%	0
55	-22%	3
56	-12%	2
57	0%	4
58	0%&-8%	x
59	x	x
60	-28%	-3

A few values from the results shown:
Value for O=C(CCNC(=O)c1ccccc1Cl)Nc1ccc2c(c1)OCO2 under GLA inh pH 4.5: 2
Value for C=CC[C@@H](CC(=O)N(CCO)Cc1ccccc1)C(=O)N[C@H](COC(=O)[C@H](CC=C)CC(=O)OC(C)(C)C)Cc1c[nH]c2ccccc12 under Rango release inh: 2%

Next results:
entry	mol	Rango complex inh	Rango release inh
61	O=C(CSc1ccc(Cl)cc1)c1ccco1	-3.5%	9%
62	Cc1ccc(C(=O)Nc2ccccc2-c2ccccc2)cc1S(=O)(=O)Nc1cccc(C)c1C	4.8%	-16%
63	O=C(CN1C(=O)CSc2ccc(S(=O)(=O)N3CCOCC3)cc21)NCc1ccc(F)cc1	-0.3%	11%
64	Cc1ccc(NC(=O)CSc2nnnn2C2CCCC2)cc1S(=O)(=O)N1CCOCC1	-3.9%	1%
65	COC(=O)c1ccccc1NC(=O)CN1CCN(Cc2ccccc2)CC1	-1.5%	u
66	CC(C)(C)c1ccc(NC(=O)CCNC(=O)c2ccco2)cc1	-0.1%	7%
67	CCOc1ccccc1N(C(=O)Nc1ccc(Cl)cc1)C1=NCCS1	0.7%	-14%
68	Nc1ncc([N+](=O)[O-])c(Oc2ccccc2F)n1	0.4%	-12%
69	CCCC(=O)Nc1sc(C)c(-c2ccc(C(C)CC)cc2)c1C#N (stereo unspecified)	2.0%	-5%
70	CCc1nc2ccccc2c(=O)n1NC(=O)c1c(O)c2ccccc2[nH]c1=O	-0.3%	3%

entry	miR-21 FLuc	GLA inh pH 4.5
61	-9%	4
62	13%	-2
63	-3%	x
64	x	x
65	-8%	x
66	-12%	x
67	-39%	3
68	-2%	3
69	0%	-7
70	1%	0

4 structures already listed, arranged by count of non-hydrogen atoms, falling:
entry	mol	Rango complex inh	Rango release inh
64	Cc1ccc(NC(=O)CSc2nnnn2C2CCCC2)cc1S(=O)(=O)N1CCOCC1	-3.9%	1%
70	CCc1nc2ccccc2c(=O)n1NC(=O)c1c(O)c2ccccc2[nH]c1=O	-0.3%	3%
67	CCOc1ccccc1N(C(=O)Nc1ccc(Cl)cc1)C1=NCCS1	0.7%	-14%
69	CCCC(=O)Nc1sc(C)c(-c2ccc(C(C)CC)cc2)c1C#N (stereo unspecified)	2.0%	-5%

entry	miR-21 FLuc	GLA inh pH 4.5
64	x	x
70	1%	0
67	-39%	3
69	0%	-7

(further entries)
entry	mol	Rango complex inh	Rango release inh
71	COc1cc(NS(=O)(=O)c2ccc(NC(=S)NC(=O)c3ccc(Br)cc3)cc2)ncn1	u	u
72	CC(=O)Nc1ccc(S(=O)(=O)N(C)CC(=O)OCC(=O)N2CC(C)OC(C)C2)cc1 (stereo unspecified)	-1.8%	13%
73	COc1ccc(C(=O)Nc2ccc(Cn3ccnc3)cc2)cc1OC	1.4%	-5%
74	COc1ccc(CNC(=O)c2cc(=O)c3cc(C)c(C)cc3o2)cc1	4.8%	2%

entry	miR-21 FLuc	GLA inh pH 4.5
71	-4%	x
72	x	x
73	-34%	x
74	-1%	x

Some of the compounds tested. The share of hits here may be higher or lower than overall.
